rRNA inh HTS: inhibits bacterial ribosomal RNA function over humanized ribosomes; E. coli WT GFP vs humanized-ribosome RFP mutants, fluorescence, 24 h; active compounds read low; DMSO median 0, no signal -100; GFP signal change (wild-type ribosome), % (no concentration beside the values); hit rate 1.6% among 350,000;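 active = significant combined selectivity score with lowered wild-type GFP, culture density cut under 30%, mutant RFP and density less affected; inactive = any of these conditions unmet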; also: one replicate is shown; some compounds called inactive have numbers as strong as hits
E coli growth: E. coli growth inhibition; Escherichia coli growth, OD600, 23 h; active compounds read low; OD600 absorbance (concentration not given with the values); hit rate 0.21% among 330,000; AID 1053175;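 active = OD600 absorbance below the run mean of sample wells minus 3.6 SD, in any replicate, cut at about 0.56 in these data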;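 also: stock transfer was 300 nL into about 60 µL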
ALR H2O2 inh: inhibitors of human sulfhydryl oxidase ALR | inhibition, % (concentration not given with the values) | hit rate 3.8% among 290,000 | P55789 | purified ALR, DTT oxidation, H2O2 HRP-luminol luminescence | AID 485317;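 active = mean and each replicate at 75% or more; inconclusive = only one of the two met; inactive = neither met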;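 also: stock transfer was 7.5 nL into about 7.5 µL; 0% = neutral wells and 100% = wells with inactivated enzyme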
Target sequence (P55789 whole entry, looked up): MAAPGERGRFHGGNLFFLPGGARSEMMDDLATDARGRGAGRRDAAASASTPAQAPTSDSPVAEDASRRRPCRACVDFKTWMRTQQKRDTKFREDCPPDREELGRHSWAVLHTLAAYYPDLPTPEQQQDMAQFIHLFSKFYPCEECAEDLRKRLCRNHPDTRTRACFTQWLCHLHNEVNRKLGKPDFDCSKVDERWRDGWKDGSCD
FGF22 binding: FGF22 (human) thermal shift binding | Q9HCT0 | recombinant FGF22 thermal shift, SYPRO orange fluorescence; percent of sucrose octasulfate shift, DMSO zero | calls only at 9.99 µM | hit rate 1.5% among 340,000 | AID 651658;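 active = melting point raised past a set limit in the mean and every replicate; inconclusive = no clear call; three in four hits are not shown here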
Target sequence (Q9HCT0 whole entry, looked up): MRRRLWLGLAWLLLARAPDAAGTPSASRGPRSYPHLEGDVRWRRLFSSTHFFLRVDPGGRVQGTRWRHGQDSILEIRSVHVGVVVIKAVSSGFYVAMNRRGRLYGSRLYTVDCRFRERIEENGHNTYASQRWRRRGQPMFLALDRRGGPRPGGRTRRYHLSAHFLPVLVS
HNF4A DNA FP: change in binding of human HNF4 alpha to DNA; P41235; HNF4a-FITC DNA binding, fluorescence polarization, 1 h; activity change, % at 10 µM; hit rate 0.3% among 360,000; in the data active = activity change above about 30%, passing the limit was not always enough;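 also: controls were the assay level and a saturating level of protein; the project sought stronger binding though the title names inhibitors; some compounds called inactive have numbers as strong as hits; positive values seem to mean higher polarization but the record does not say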
Target sequence (P41235 whole entry, looked up): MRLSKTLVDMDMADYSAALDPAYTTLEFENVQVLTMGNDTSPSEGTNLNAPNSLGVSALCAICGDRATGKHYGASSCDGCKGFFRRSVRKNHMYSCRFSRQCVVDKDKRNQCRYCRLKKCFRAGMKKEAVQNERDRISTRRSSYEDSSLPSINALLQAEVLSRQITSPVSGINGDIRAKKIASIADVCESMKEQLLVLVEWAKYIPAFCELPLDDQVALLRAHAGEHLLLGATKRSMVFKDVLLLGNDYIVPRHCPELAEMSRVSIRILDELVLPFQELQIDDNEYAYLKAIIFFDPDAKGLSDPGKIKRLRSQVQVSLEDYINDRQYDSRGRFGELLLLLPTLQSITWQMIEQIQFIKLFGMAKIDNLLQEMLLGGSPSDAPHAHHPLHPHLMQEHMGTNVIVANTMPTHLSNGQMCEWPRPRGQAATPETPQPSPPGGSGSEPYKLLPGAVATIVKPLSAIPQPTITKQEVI
Vif A3G: HIV-1 Vif–A3G interaction blockers – biochemical, TR-FRET, GST-Vif 1-94, biotin-A3G peptide, dose response retest, primary screen (AID 1117319) | one-dose inhibition, %; IC50 in µM for titrated hits | TR-FRET GST-Vif / biotin-A3G peptide binding; higher % means a stronger effect; test concentration not given here; strong numbers were not always called active | hit rate 0.57% among 260,000;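 active = above the screen mean plus three standard deviations and confirmed in dose response; inconclusive = results disagree or hit not tested in dose response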;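 also: Vif residues 1-94 fused to GST binding biotinylated APOBEC3G peptide 110-148; 0% = full assay without inhibitor and 100% = GST in place of GST-Vif; retest series ran down from 100 µM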
MLL AF4-AF9 inh: inhibitors of human MLL-AF4/AF9 interaction; P42568; AlphaScreen, biotin-AF4 peptide binding to FLAG-AF9; inhibition, % at 10 µM; hit rate 0.47% among 350,000; AID 651704;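 active = every replicate reaching a set inhibition limit, whatever the replicate mean, cut at about 25% in these data; inconclusive = mean inhibition reaches that limit but some replicates miss it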;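 also: 0% = plate neutral control median and 100% = total signal loss; the record names both 10 and 1 µM as test concentration; the first replicate is given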
rRNA inh HTS OD600: also measured in rRNA inh HTS; calls as there; OD600 change, %; measured here: OD600 growth;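 optical density of the mix in the first replicate; 0 = DMSO median and -100 = no signal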
rRNA inh HTS RFP: further read-out of rRNA inh HTS, marked with its call; RFP signal change, %; measured here: RFP humanized mutant strains;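 first replicate; 0 = DMSO median and -100 = no signal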
Starred values were filed as active, the others as inactive; i = inactive; ? = inconclusive; / = not tested or not shown; + = active, no number.

SMILES	rRNA inh HTS	rRNA inh HTS OD600	rRNA inh HTS RFP	E coli growth	ALR H2O2 inh	FGF22 binding	HNF4A DNA FP	Vif A3G	MLL AF4-AF9 inh
C[C@@H]1CN([C@@H](C)CO)C(=O)Cc2cc(NS(=O)(=O)c3cccs3)ccc2O[C@@H]1CN(C)Cc1ccc2c(c1)OCO2	-6.0	-16.6	-0.2	/	/	i	/	/	-1.7
CC(C)(C)c1ccc(OCC(=O)NC2CCS(=O)(=O)C2)cc1 (centres undefined)	/	/	/	0.667	-0.9	/	3.1	4.0%	/
OC(CCN1CCCC1)(c1ccccc1)C1CCCCC1 (centres undefined)	/	/	/	0.71	-8.1	i	1.3	?	-12.6
C[C@@H]1CN([C@H](C)CO)C(=O)c2cc(-c3ccc(F)cc3)cnc2O[C@@H]1CN(C)C(=O)c1ccccc1F	2.5	3.8	-4.0	/	/	i	/	/	-5.5
COc1ccc(-c2nc3c4ccccc4[nH]c(=O)n3n2)cc1	/	/	/	0.677	3.1	/	5.5	-1.9%	/
COCC(=O)N1CC[C@@H]2[C@H]1c1cc(-c3cccc(F)c3)ccc1N(C)[C@@H]2CO	-1.1	-4.9	3.2	/	/	i	/	/	-1.7
CCOc1ccc(NC(=O)Cn2nnc(-c3ccccc3NC(=O)C3CC3)n2)cc1	/	/	/	0.711	-2.7	/	-1.0	14.2%	/
CNC(=O)c1c(NC(=O)c2ccc(N3C(=O)CCC3=O)cc2)sc2c1CCCC2	-13.2	-19.0	-1.4	0.649	96.8*	i	-1.0	-8.7%	-5.9
COc1cccc(NC(=O)C2C3CC4OC(=O)C2C4C3)c1 (centres undefined)	/	/	/	0.8	-31.0	/	-3.0	-3.4%	/
c1ccc(NN(Cc2ccncc2)c2ccccc2)cc1	-52.3	-73.0	-15.8	/	/	i	-0.9	-10.9%	1.9

Reprinted from the part before: 2 entries; new compounds follow.
SMILES	rRNA inh HTS	rRNA inh HTS OD600	rRNA inh HTS RFP	E coli growth	ALR H2O2 inh	FGF22 binding	HNF4A DNA FP	Vif A3G	MLL AF4-AF9 inh
COc1cccc(NC(=O)C2C3CC4OC(=O)C2C4C3)c1 (centres undefined)	/	/	/	0.8	-31.0	/	-3.0	-3.4%	/
c1ccc(NN(Cc2ccncc2)c2ccccc2)cc1	-52.3	-73.0	-15.8	/	/	i	-0.9	-10.9%	1.9
COCC(C)NC(=O)/C(=C/c1ccccc1)c1ccccc1 (centres undefined)	6.7	-0.2	-0.8	/	-2.2	i	1.8	-4.8%	-3.7
O=C(c1[nH]c(C(F)(F)F)nc1-c1ccccc1)N1CCOCC1	-2.4	5.6	-2.0	/	/	i	4.8	/	2.0
Cc1ccc(Cn2c(N)nc3ccccc32)cc1	-21.4	-23.9	-3.6	/	2.4	i	-1.6	-3.0%	8.1
Cc1ccc(C2=NS(=O)(=O)N(C)C(C(=O)NCc3ccco3)=C2)cc1	-2.4	-5.4	-5.8	0.722	1.4	i	0.0	/	8.7
COc1ccc(S(=O)(=O)Nc2ccc(NC(C)=O)cc2)cc1OC	/	/	/	0.654	-23.6	/	0.8	-1.1%	/
CN(C)c1nc2c(cnn2C)c(=O)[nH]1	14.9	14.3	4.6	0.704	/	i	4.8	-1.2%	-2.4
CCC[N+](CC#Cc1ccccc1)(CCC)CC(=O)OCC	/	/	/	0.661	-2.9	/	0.3	-2.0%	/
O=C1NCC(Nc2ccc(Br)cc2)C(=O)N1 (centres undefined)	0.5	4.2	-1.1	0.668	/	i	-1.3	-7.2%	-1.5
Cc1c(C(=O)NCc2cccc(C(F)(F)F)c2)sc(=O)n1Cc1cccc(F)c1	3.1	-30.6	-0.9	/	/	i	0.4	/	-2.9
O=C(CSc1nc2[nH]ncc2c(=O)[nH]1)Nc1ccc(OC(F)(F)F)cc1	2.0	3.4	0.0	0.638	16.1	+	1.5	-5.6%	-6.6
CCCC#Cc1cnc2c(c1)C(=O)N([C@H](C)CO)C[C@@H](C)[C@@H](CN(C)C(=O)CN1CCOCC1)O2	5.4	9.1	-3.1	/	/	i	/	/	-4.0
Cn1ccsc1=NC(=O)c1ccc(S(C)(=O)=O)cc1	5.0	12.2	-2.5	0.704	-8.4	i	2.1	/	2.0
O=S(=O)(Nc1cccc(Oc2cnccn2)c1)c1ccc(F)cc1	3.3	2.1	3.2	0.667	-11.4	i	-5.8	-4.3%	-1.2
CC(C)C[C@@H](C(=O)O)N(Cc1cccc(CN([C@@H](CC(C)C)C(=O)O)S(C)(=O)=O)c1)S(C)(=O)=O	17.9	22.8	32.8	/	-4.0	i	-0.7	/	-5.6
O=C(/C=C/c1cccc([N+](=O)[O-])c1)Nc1cccc(NC(=O)c2ccco2)c1	-4.8	1.6	-9.6	0.674	33.5	i	1.8	/	4.0
O=C(COC(=O)c1cncc(Br)c1)NCc1ccc2c(c1)OCO2	4.4	-9.0	-0.9	0.748	0.7	i	-0.1	-13.5%	-7.0
CC(NC(=O)c1ccc(Br)o1)C1CC2CCC1C2 (centres undefined)	-7.3	-7.8	-1.4	0.644	0.7	i	-0.2	/	-6.1
CCOC(=O)C1CCCn2c1nc1sc3c(c1c2=O)CCCC3 (centres undefined)	/	/	/	0.671	-8.5	/	-0.9	-1.2%	/
CC(=O)NCCc1nc2cc(NC(=O)c3cccc([N+](=O)[O-])c3)ccc2n1C	/	/	/	0.676	-8.8	/	-3.3	-7.8%	/
Cc1ccc(C(=O)Nc2ccc(N3CCCCC3)cc2)cc1	/	/	/	0.699	1.1	i	-4.6	/	-2.3
Cc1ccc(S(=O)(=O)CCC(=O)OCC(=O)NCCc2ccc(S(N)(=O)=O)cc2)cc1	0.7	3.6	0.3	0.691	/	i	-0.3	1.7%	-1.4
OC(CNCc1ccccc1Cl)C(F)(F)F (centres undefined)	17.1	10.3	2.0	0.68	-16.6	i	0.9	9.6%	2.8
CCCCSCc1nc2ccccn2c1Br	5.3	2.5	1.8	0.643	-13.3	i	-1.1	10.2%	7.4
Cc1ccc(/C=N\NC(=O)/C(=C\Nc2nccc(C)n2)NC(=O)c2ccccc2)cc1	2.5	9.2	4.4	/	/	i	-0.1	-0.9%	0.1
CN1CCn2c1nc(N1CCOCC1)nc2=O	/	/	/	0.795	2.5	/	-3.9	-0.6%	/
CCN(CC)c1ccc(NC(=O)c2ccco2)c(C)c1	/	/	/	0.603	98.9*	/	-0.1	6.3%	/
O=C(N/N=C/c1cccc([N+](=O)[O-])c1)c1ccc(Br)cc1	12.2	8.1	2.8	/	28.9	i	6.7	5.3%	1.1
Cc1ccc(CSc2nnc(-c3ccccn3)n2C)cc1	/	/	/	0.672	-4.8	/	-3.6	6.3%	/
CC(=O)N1CCN(c2cc(N3CCCC3)c(F)cc2[N+](=O)[O-])CC1	-19.1*	-3.8*	0.0*	0.689	-7.7	i	0.7	31.8%	5.8
COc1cccc(C=Cc2nccc3ccccc23)c1OC	-62.0	-80.0	-18.4	/	/	i	-4.0	-3.1%	11.6
c1ccc2c(c1)Cn1c-2nc2ccccc21	/	/	/	0.636	-5.0	/	1.7	-3.9%	/
O=C(O)c1ccc(N/N=C/C=C/c2ccc([N+](=O)[O-])o2)cc1	-31.8*	-12.7*	4.0*	/	11.9	i	24.0	/	8.2
Cc1ccccc1NC1=NC(C)(C)N=C(N)N1	/	/	/	0.72	1.7	/	-0.6	-7.9%	/
NC(=O)CN1C(=O)C(=O)N(Cc2ccccc2Cl)C1=O	1.8	9.1	0.0	0.676	-0.9	i	0.5	0.2%	0.9
O=S(=O)(c1cccc(Cl)c1)N1CCN(S(=O)(=O)c2ccc3c(c2)OCCO3)CC1	2.8	7.1	-4.8	0.764	1.7	i	-4.7	/	1.8
C[C@@H]1CN([C@@H](C)CO)C(=O)Cc2cc(NC(=O)Cc3cn(C)c4ccccc34)ccc2O[C@@H]1CN(C)S(=O)(=O)c1cccs1	-0.3	-8.6	-0.6	/	/	i	/	/	-1.1
O=C(O)c1ccc(CN2C[C@@H](CO)O[C@@H](n3cnc4c(NCc5ccc(F)cc5)ncnc43)C2)cc1	6.8	6.0	-2.0	/	/	i	1.2	/	-1.1
Cc1cccc(C(=O)NCC(C)NC(=O)c2cccc(C)c2)c1 (centres undefined)	-8.1	-2.0	-4.3	0.671	0.9	i	2.9	/	-2.4
Cn1c(=O)c2c(SCc3ccccn3)nc(C3CC3)nc2n(C)c1=O	4.2	2.6	-6.4	0.691	/	i	-0.5	-3.3%	4.7
COCC(=O)N(C)C[C@@H]1Oc2cc(-c3cccnc3)ccc2S(=O)(=O)N([C@H](C)CO)C[C@H]1C	-1.9	-12.4	0.0	/	/	i	/	/	1.6
O=C(C[C@H]1C[C@@H]2c3cc(NC(=O)NC4CCCC4)ccc3O[C@@H]2[C@H](CO)O1)NCc1ccncc1	1.7	8.4	-0.8	/	/	i	/	/	-2.7
O=C(NC1CCCC1)C1c2ccccc2OCC(=O)N1CCCN1CCOCC1 (centres undefined)	/	/	/	/	/	i	-0.3	/	1.5
Cc1ccc(-n2[nH]c(C)c(C=Nc3ccc(Br)cn3)c2=O)cc1	5.7	8.1	1.9	0.698	-3.3	/	4.8	-4.6%	-1.5
Cc1ccc(-c2nnn(CC(=O)N3C(C)CCCC3C)n2)cc1 (centres undefined)	7.6	6.5	2.5	0.639	1.8	i	-0.1	10.0%	-10.1
CC(=O)c1ccc(NC(=O)N2CCN(c3ccc(C)cc3)C(C)C2)cc1 (centres undefined)	-28.8	-44.4	-7.8	0.678	95.7*	i	-0.1	8.8%	5.9
O=C(NC1CCCCC1)C(c1ccccc1)N(C(=O)c1csnn1)C1CC1 (centres undefined)	6.7	4.5	-0.8	0.649	-8.0	i	-0.4	/	-1.6
COC(=O)c1ccc2nc(C3CCCCC3)c(Cc3ccc(C)cc3)n2c1	4.5	7.1	7.0	/	/	i	5.9	/	2.3
CCOC(=O)c1c(NC(=O)CSc2nnc(-c3c[nH]c4ccccc34)n2CCOC)sc2c1CCCC2	2.7	0.5	5.3	0.765	8.2	i	3.5	/	-7.9
COc1ccc(C(=O)NNC(=O)CCc2nc3ccccc3c(=O)[nH]2)cc1	6.5	7.8	0.8	0.711	0.3	i	5.4	-0.9%	-1.6
O=C(COc1ccc(Cl)cc1Cl)NC(=O)c1ccccc1	20.4	26.3	1.7	0.72	2.9	i	3.8	/	-3.1

Remaining list, next part
SMILES	rRNA inh HTS	rRNA inh HTS OD600	rRNA inh HTS RFP	E coli growth	ALR H2O2 inh	FGF22 binding	HNF4A DNA FP	Vif A3G	MLL AF4-AF9 inh
Cc1cc(C(=O)N/N=C2\CC(=O)CC(C)(C)C2)n[nH]1	/	/	/	/	3.4	/	-6.9	22.3%	/
Cc1ccc(C(=O)CNc2ccc(C)c(Cl)c2)cc1	/	/	/	0.726	7.3	/	-0.3	-0.6%	/
CCCN1[C@H](C(=O)OC)[C@@H](CO)[C@@H]2Cn3c(ccc(-c4cccc(OC)c4)c3=O)[C@@H]21	-2.2	-0.8	1.4	/	/	i	/	/	1.3
CCOC(=O)c1ccc(N/C=C2/CCCC(C)C2=O)cc1 (centres undefined)	/	/	/	0.769	-17.7	/	-1.2	1.6%	/
CC(C)NC(=O)N(C)C[C@H]1Oc2ncc(C#CC3CCCC3)cc2C(=O)N([C@@H](C)CO)C[C@H]1C	2.1	-0.3	2.4	/	/	i	/	/	-1.6
CC(C)NC(=O)Nc1cccc2c1O[C@@H](CN(C)Cc1ccc3c(c1)OCO3)[C@@H](C)CN([C@H](C)CO)C2=O	5.7	0.0	0.9	/	/	i	/	/	0.3
CCOc1ccc(NC(=O)CSc2nnc(C3CC3)n2C)cc1	-1.8	2.7	-1.9	0.754	0.4	i	1.4	/	-0.7
COc1cc(Cl)c(C)cc1NC(=O)CSc1sc2c(O)cc(=O)[nH]c2c1C#N	3.7	11.3	-3.1	/	?	i	-26.8	/	-0.4

Screens from PubChem.

An excerpt (hit frequency here may not be typical).
